Screening results (PubChem)
MLL AF4-AF9 inh: MLL-AF4/AF9 protein interaction inhibition | P42568 | AlphaScreen, biotin-AF4 peptide binding to FLAG-AF9 | inhibition, % at 10 µM | 350,000 tested, 0.47% active | AID 651704;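 active = every replicate reaching a set inhibition limit, whatever the replicate mean, cut at about 25% in these data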;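 note: 0% = plate neutral control median and 100% = total signal loss; the record names both 10 and 1 µM as test concentration; the first replicate is given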
Target sequence (P42568 whole entry, looked up): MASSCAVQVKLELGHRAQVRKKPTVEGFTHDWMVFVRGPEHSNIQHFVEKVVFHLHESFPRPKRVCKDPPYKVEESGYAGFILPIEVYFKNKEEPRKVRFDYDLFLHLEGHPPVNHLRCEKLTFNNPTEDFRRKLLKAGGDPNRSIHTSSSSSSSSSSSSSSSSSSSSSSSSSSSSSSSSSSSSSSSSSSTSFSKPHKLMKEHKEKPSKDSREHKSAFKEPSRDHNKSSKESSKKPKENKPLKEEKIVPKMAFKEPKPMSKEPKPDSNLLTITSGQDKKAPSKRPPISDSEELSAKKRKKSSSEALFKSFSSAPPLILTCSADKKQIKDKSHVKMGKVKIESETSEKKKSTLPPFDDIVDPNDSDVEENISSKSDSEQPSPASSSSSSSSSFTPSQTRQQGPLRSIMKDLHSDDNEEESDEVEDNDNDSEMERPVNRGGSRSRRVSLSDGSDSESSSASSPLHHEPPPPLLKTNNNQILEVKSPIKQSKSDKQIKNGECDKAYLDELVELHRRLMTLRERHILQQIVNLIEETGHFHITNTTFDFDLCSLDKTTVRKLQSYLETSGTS
Ecoli rRNA inh: selective bacterial rRNA inhibition in E. coli; E. coli WT GFP vs humanized-ribosome RFP mutants, fluorescence, 24 h; active compounds read low; DMSO median 0, no signal -100; GFP signal change (wild-type ribosome), % (concentration not given with the values); 350,000 tested, 1.6% active; AID 720706;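 active = significant combined selectivity score with lowered wild-type GFP, culture density cut under 30%, mutant RFP and density less affected; inactive = any of these conditions unmet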; note: one replicate is shown; some compounds called inactive have numbers as strong as hits
Ecoli rRNA inh OD600: second read-out of Ecoli rRNA inh, no call of its own (marks repeat the call); OD600 change, %; measured here: OD600 growth;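 optical density of the mix in the first replicate; 0 = DMSO median and -100 = no signal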
Ecoli rRNA inh RFP: also measured in Ecoli rRNA inh; calls as there; RFP signal change, %; measured here: RFP humanized mutant strains;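 first replicate; 0 = DMSO median and -100 = no signal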
Numbers without * were called inactive. Not all compounds are listed. The share of hits here may be higher or lower than overall.

SMILES | MLL AF4-AF9 inh | Ecoli rRNA inh | Ecoli rRNA inh OD600 | Ecoli rRNA inh RFP
CCOC(=O)C1=C[C@@H](C(C)(C)C)N(S(=O)(=O)c2ccc(C)cc2)[C@H]1c1cccc2ccccc12 | -4.3 | -3 | 13 | -4.6
Cc1noc(C)c1NC(=O)N(C)C[C@@H]1OCCCC[C@H](C)Oc2ccc(NS(=O)(=O)c3ccc(Cl)cc3)cc2C(=O)N([C@H](C)CO)C[C@@H]1C | -17 | -3 | -1 | 2.3
C[C@H]1CCCCO[C@H](CN(C)S(=O)(=O)c2cccs2)[C@@H](C)CN([C@@H](C)CO)C(=O)c2cc(N(C)C)ccc2O1 | 7.3 | -3 | -2 | -1.1
CC(=O)Nc1ccc2c(c1)C(=O)N(C)[C@@H]1CC[C@H](CC(=O)NCc3ccccc3)O[C@@H]1CO2 | 1.4 | 1 | 5 | -1.2
O=C(C[C@@H]1C[C@@H]2c3cc(NC(=O)c4cccnc4)ccc3O[C@@H]2[C@H](CO)O1)NCc1cccc(F)c1 | -1.1 | 2 | -1 | 0.6
O=C1Nc2cnc(Cl)nc2Nc2ccc(Cl)cc21 | -1.0 | 8 | 0 | 1.3
COCC(=O)N1C[C@H]2[C@@H](c3ccccc31)[C@@H](CO)N2C(=O)C1CC1 | -0.6 | 4 | 10 | -1.9
C[C@H]1CN([C@@H](C)CO)S(=O)(=O)c2ccc(C3=CCCCC3)cc2O[C@@H]1CN(C)Cc1cccnc1 | 15 | -42 | -57 | 30
Cc1noc(C)c1NC(=O)Nc1ccc2c(c1)C(=O)N([C@H](C)CO)C[C@@H](C)[C@@H](CN(C)Cc1ccccc1)OCCCC[C@H](C)O2 | -3.0 | 3 | 2 | -1.0
COCCNC(=O)C1CCCN(C(=O)c2ccc3c(c2)C(C)(C)CCC3(C)C)CC1 (configuration not stated) | 0.1 | -4 | -2 | -1.1

The closing five compounds of the part above are carried over, then new ones follow.
SMILES | MLL AF4-AF9 inh | Ecoli rRNA inh | Ecoli rRNA inh OD600 | Ecoli rRNA inh RFP
O=C1Nc2cnc(Cl)nc2Nc2ccc(Cl)cc21 | -1.0 | 8 | 0 | 1.3
COCC(=O)N1C[C@H]2[C@@H](c3ccccc31)[C@@H](CO)N2C(=O)C1CC1 | -0.6 | 4 | 10 | -1.9
C[C@H]1CN([C@@H](C)CO)S(=O)(=O)c2ccc(C3=CCCCC3)cc2O[C@@H]1CN(C)Cc1cccnc1 | 15 | -42 | -57 | 30
Cc1noc(C)c1NC(=O)Nc1ccc2c(c1)C(=O)N([C@H](C)CO)C[C@@H](C)[C@@H](CN(C)Cc1ccccc1)OCCCC[C@H](C)O2 | -3.0 | 3 | 2 | -1.0
COCCNC(=O)C1CCCN(C(=O)c2ccc3c(c2)C(C)(C)CCC3(C)C)CC1 (configuration not stated) | 0.1 | -4 | -2 | -1.1
CO[C@@H](CN(C)S(=O)(=O)c1ccc(Cl)cc1)[C@H](C)CN(C(=O)Nc1ccccc1F)[C@@H](C)CO | -0.3 | -8 | -10 | 2.9
C[C@@H]1CN([C@@H](C)CO)C(=O)c2cc(NC(=O)Nc3ccc(C(F)(F)F)cc3)ccc2O[C@H]1CN(C)C | 2.2 | 5 | 3 | 1.6
O=C(C1CCC1)N1CC2(C1)[C@H](c1ccccc1)[C@H](CO)N2C(=O)CC1CC1 | -2.3 | 3 | 5 | -1.7
C[C@@H]1CN([C@@H](C)CO)S(=O)(=O)c2ccc(C#C[C@@H](C)O)cc2O[C@@H]1CN(C)Cc1ccccc1 | -0.5 | -4 | -21 | 2.2
COc1ccc(S(=O)(=O)N[C@@H]2CC[C@@H](CC(=O)O)O[C@H]2CO)cc1 | -0.5 | 0 | 3 | 0.2
N#C[C@@H]1[C@@H](c2ccc(-c3ccc(F)cc3)cc2)[C@@H](CO)N1c1nc(-c2ccccc2)cs1 | 1.0 | -5 | 11 | -0.8
O=C(Nc1ccc(F)cc1)N[C@H]1CC[C@H](CCn2cc(C3(O)CCCC3)nn2)O[C@H]1CO | -2.7 | 1 | 3 | 1.6
C[C@H]1CN([C@@H](C)CO)C(=O)c2cc(NC(=O)NC3CCCCC3)ccc2O[C@@H]1CN(C)C(=O)Nc1ccccc1 | -5.7 | 6 | 4 | -0.1
C[C@H]1CCCCO[C@H](CN(C)C(=O)CCCN(C)C)[C@@H](C)CN([C@@H](C)CO)C(=O)c2cc(NS(=O)(=O)c3cccs3)ccc2O1 | -2.2 | 4 | 2 | 1.6
COc1ccc(CN(C)C[C@@H]2Oc3ccc(NC(=O)Cc4cn(C)c5ccccc45)cc3C(=O)N([C@H](C)CO)C[C@H]2C)cc1 | 5.1 | -1 | 6 | 4.5

Exported with tabs: entries from further up
compound	MLL AF4-AF9 inh	Ecoli rRNA inh	Ecoli rRNA inh OD600	Ecoli rRNA inh RFP
O=C(C1CCC1)N1CC2(C1)[C@H](c1ccccc1)[C@H](CO)N2C(=O)CC1CC1	-2.3	3	5	-1.7
C[C@@H]1CN([C@@H](C)CO)S(=O)(=O)c2ccc(C#C[C@@H](C)O)cc2O[C@@H]1CN(C)Cc1ccccc1	-0.5	-4	-21	2.2

Next section
SMILES | MLL AF4-AF9 inh | Ecoli rRNA inh | Ecoli rRNA inh OD600 | Ecoli rRNA inh RFP
C[C@@H]1CN([C@@H](C)CO)C(=O)c2cc(NS(=O)(=O)c3ccc(F)cc3)ccc2O[C@@H](C)CCCCO[C@H]1CN(C)C(=O)CCCN(C)C | -0.9 | 3 | 9 | 1.5
C[C@@H]1CCCCO[C@@H](CN(C)S(C)(=O)=O)[C@H](C)CN([C@H](C)CO)C(=O)c2cc(NC(=O)Nc3ccccc3)ccc2O1 | -1.5 | 2 | 0 | -1.6
C[C@@H]1CCCCO[C@@H](CN(C)C(=O)c2ccccc2)[C@H](C)CN([C@@H](C)CO)C(=O)c2cc(NC(=O)Nc3ccccc3)ccc2O1 | 0.9 | -6 | -15 | 0.7
CCCCCCCCN1C(=O)[C@H](CC(=O)NCCCCc2ccccc2)C[C@@]2(C(=O)OCC)CCCC=C12 | -2.2 | 11 | 13 | 1.8
COCC(=O)Nc1ccc2c(c1)C(=O)N(C)C[C@H](OC)[C@@H](C)CN(C(=O)c1ccncc1)[C@@H](C)CO2 | 0.2 | 4 | 4 | -2.7
C/C=C/c1ccc([C@@H]2[C@@H](CO)N(C(=O)CC)[C@H]2CNC(=O)CC)cc1 | -1.8 | 2 | 8 | -0.9
O=C(Nc1ccc(Cl)cc1)N[C@H]1CC[C@H](CCNS(=O)(=O)c2ccccc2F)O[C@@H]1CO | 1.2 | -10 | -17 | 4.2
COc1ccccc1C(=O)Nc1ccc2c(c1)OC[C@H](C)NC[C@@H](C)[C@@H](OC)CN(C)C2=O | 2.6 | 3 | 7 | -0.6
C[C@H]1CN([C@@H](C)CO)C(=O)c2cc(-c3ccncc3)cnc2O[C@H]1CN(C)C(=O)c1ccccc1F | -4.5 | 0 | 5 | -2.6
CCCCCCn1cc(CN2CC(N(C)CC)CS2(=O)=O)nn1 (configuration not stated) | 0.4 | 13 | 7 | 0.0
C[C@H]1CN([C@@H](C)CO)C(=O)c2cc(-c3cccc(F)c3)cnc2O[C@H]1CN(C)Cc1ccncc1 | -6.5 | 2 | -4 | -3.5
N#Cc1cccc(-c2csc(C(O)c3ccco3)n2)c1 (configuration not stated) | 0.8 | 8 | 17 | 3.6
C[C@H]1CN([C@@H](C)CO)S(=O)(=O)c2ccc(C#Cc3cccnc3)cc2O[C@H]1CN(C)C | -0.2 | 3 | 8 | -3.3
C[C@@H]1CN([C@@H](C)CO)C(=O)c2cccc(NS(=O)(=O)c3ccc(Cl)cc3)c2O[C@@H]1CN(C)Cc1ccncc1 | -0.6 | -3 | -9 | -0.4
Cc1ccc(S(=O)(=O)N(C)C[C@H]2OCCCC[C@@H](C)Oc3ccc(NS(=O)(=O)c4cn(C)cn4)cc3C(=O)N([C@H](C)CO)C[C@@H]2C)cc1 | -1.3 | 0 | 9 | 0.5
C[C@@H]1CN([C@H](C)CO)C(=O)c2cc(-c3cccc(F)c3)cnc2O[C@H]1CN(C)C(=O)C1CCOCC1 | -3.2 | 4 | 5 | -3.0
C=CCNC(=O)c1ccsc1N | -3.6 | 16 | 9 | 28
CCCC#Cc1ccc2c(c1)O[C@H](CN(C)C(=O)c1ccncc1)[C@H](C)CN([C@H](C)CO)S2(=O)=O | -6.5 | -1 | -5 | -0.4
C[C@@H]1CCCCO[C@H](CN(C)C(=O)Nc2cccc3ccccc23)[C@@H](C)CN([C@H](C)CO)C(=O)c2cc(NS(=O)(=O)c3ccc(F)cc3)ccc2O1 | 0.6 | 2 | 1 | -2.7
O=C(c1ccccn1)N1CC[C@@H]2[C@H](CO)Nc3ccc(C#Cc4ccccc4)cc3[C@@H]21 | -0.1 | -6 | -15 | 9.0
COc1ccccc1-c1ccccc1[C@H]1[C@H](C#N)N(C(=O)CN(C)C)[C@H]1CO | -1.4 | 5 | 17 | 2.6
CCOc1ccc(Cl)cc1-c1cc(C(=O)NCCOC)[nH]n1 | -1.7 | -4 | -9 | 4.0
C[C@@H]1CN([C@H](C)CO)C(=O)c2cc(NC(=O)Nc3ccc4c(c3)OCO4)ccc2O[C@H]1CN(C)C | -1.2 | -3 | 1 | -1.2
C[C@@H]1CN([C@@H](C)CO)S(=O)(=O)c2ccc(C3=CCCC3)cc2O[C@@H]1CN(C)Cc1ccncc1 | -4.9 | -1 | -15 | 5.0
O=C(C[C@H]1CC[C@H](NC(=O)Nc2cccc(F)c2)[C@H](CO)O1)NCC1CCCCC1 | 0.1 | 0 | 5 | 1.0
Cc1noc(C)c1NC(=O)Nc1cccc2c1O[C@H](CN(C)S(=O)(=O)c1ccc(F)cc1)[C@@H](C)CN([C@@H](C)CO)C2=O | -1.2 | -1 | -1 | -4.2
COCC#Cc1ccc2c(c1)O[C@@H](CN(C)C(=O)Nc1ccc(OC)cc1)[C@H](C)CN([C@@H](C)CO)S2(=O)=O | -0.1 | -10 | -2 | 3.6
C[C@@H]1CN([C@@H](C)CO)C(=O)Cc2cc(NC(=O)C3CCCCC3)ccc2O[C@H]1CN(C)C(=O)Nc1ccccc1 | -3.5 | -1 | -2 | -1.9
CCOC(=O)C1=CCN(S(=O)(=O)c2ccc(Cl)cc2)C1c1ccc(Br)cc1 (configuration not stated) | -5.3 | -2 | 0 | -2.0
C[C@@H]1CN([C@H](C)CO)C(=O)c2cccc(NS(=O)(=O)c3cn(C)cn3)c2O[C@@H]1CN(C)C | 1.0 | 0 | 0 | 5.2
Cc1noc(C)c1NC(=O)N[C@H]1CC[C@@H](CCNC(=O)C2CCOCC2)O[C@H]1CO | -24 | 5 | 13 | -4.2
C[C@H]1CN([C@@H](C)CO)S(=O)(=O)c2ccc(-c3cncnc3)cc2O[C@@H]1CN(C)Cc1ccccn1 | 0.4 | -7 | -4 | -1.7
O=C(C[C@H]1C[C@H]2c3cc(NC(=O)Nc4ccccc4F)ccc3O[C@H]2[C@H](CO)O1)NCc1ccc(Oc2ccccc2)cc1 | -2.7 | -2 | 2 | 2.5
C[C@@H]1CN([C@H](C)CO)C(=O)c2cc(NC(=O)Nc3ccc(F)cc3)ccc2O[C@@H](C)CCCCO[C@H]1CN(C)C | -0.9 | -2 | 0 | -0.4
COC(=O)[C@H]1[C@H](CO)[C@H]2Cn3c(ccc(C4=CCCCC4)c3=O)[C@H]2N1Cc1ccc2c(c1)OCO2 | 0.6 | -9 | -18 | 9.7
COCC(=O)N1C[C@H]2[C@@H](c3ccccc31)[C@@H](CO)N2Cc1cc(F)ccc1F | -0.2 | -8 | -1 | -1.2
C[C@H]1CN([C@@H](C)CO)C(=O)c2cc(NC(=O)Nc3ccc(F)cc3)ccc2O[C@@H]1CN(C)S(=O)(=O)c1ccccc1 | -5.0 | -4 | -3 | 8.2
C[C@@H]1CN([C@@H](C)CO)C(=O)c2cc(NS(=O)(=O)c3cccs3)ccc2O[C@@H](C)CCCCO[C@H]1CN(C)C(=O)Cc1ccccc1 | 3.6 | 2 | -9 | -0.2
CC(=O)N1C[C@H]2[C@@H](c3ccccc31)[C@@H](CO)N2C(=O)c1ccc(F)cc1 | -2.8 | 6 | 2 | -0.7
C[C@@H]1CN([C@@H](C)CO)C(=O)c2cc(NC(=O)Nc3ccccc3)ccc2O[C@@H](C)CCCCO[C@H]1CN(C)Cc1ccc(C(=O)O)cc1 | 0.1 | 3 | 0 | 0.5
C[C@H]1CN([C@@H](C)CO)C(=O)c2cccc(NS(=O)(=O)c3ccc(F)cc3)c2O[C@@H]1CN(C)Cc1ccc(Cl)c(Cl)c1 | 3.4 | 2 | 3 | 2.1
O=C(Nc1ccccc1)N1CCCCN2[C@H](CO)[C@H](c3ccc(-c4ccccc4)cc3)[C@H]2C1 | 7.7 | -57 | -72 | -10
CO[C@@H]1CN(C)C(=O)c2ccc(NS(=O)(=O)c3ccccc3)cc2OC[C@H](C)NC[C@@H]1C | -3.5 | 5 | 9 | -0.5
CC(C)CCNC(=O)C1(C)CCN1Cc1ccc2ccccc2c1 (configuration not stated) | -2.5 | -30 | -40 | -5.4
CN(C)CC(=O)N1[C@H](C#N)[C@@H](c2ccc(C#CC3CC3)cc2)[C@@H]1CO | 1.6 | -1 | 9 | -2.0
CC(=O)N(C)C[C@H]1[C@H](c2ccc(-c3ccc(F)cc3)cc2)[C@@H](CO)N1C(C)=O | -8.6 | -1 | 3 | -0.5
CCC(=O)Nc1ccc2c(c1)C(=O)N(C)C[C@@H](OC)[C@H](C)CN(C(=O)C1CC1)[C@H](C)CO2 | -1.0 | 1 | 2 | -0.7
